# Screening results (PubChem BioAssay)
# GIRK2 act: activators of human GIRK2 potassium channels | P48051 | HEK293-GIRK2 thallium flux, Thallos fluorescence | calls only for hits at 25 µM | 63,000 compounds, 0.05% hits | AID 1259325;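 active means among the strongest 0.2% of first-round signals and kept after retests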;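 further: first round at about 10 µM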
# Target sequence (P48051 whole entry, looked up): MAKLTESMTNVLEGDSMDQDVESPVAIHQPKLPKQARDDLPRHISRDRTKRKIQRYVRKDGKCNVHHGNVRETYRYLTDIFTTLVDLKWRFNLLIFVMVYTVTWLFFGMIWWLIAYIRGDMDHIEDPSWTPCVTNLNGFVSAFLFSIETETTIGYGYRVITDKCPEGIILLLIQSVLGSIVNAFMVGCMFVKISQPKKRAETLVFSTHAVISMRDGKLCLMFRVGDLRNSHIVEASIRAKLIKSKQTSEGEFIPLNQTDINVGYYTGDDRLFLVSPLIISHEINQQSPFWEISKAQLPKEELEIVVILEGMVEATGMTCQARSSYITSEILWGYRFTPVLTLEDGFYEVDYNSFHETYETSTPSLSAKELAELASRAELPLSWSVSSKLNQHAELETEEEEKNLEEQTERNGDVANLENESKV
# Calls only; i = inactive. A portion of the library; count on the stated rates, not on these rows.
SMILES	GIRK2 act
O=C(NCCC(O)c1cccc2ccccc12)C(=O)Nc1cccnc1 (centres undefined)	i
CCOc1ccc(-c2cc(=O)n(CCCC(=O)Nc3nnc(C)s3)cn2)cc1	i
COc1ccc(CC(C)(O)CNS(=O)(=O)Cc2ccccc2)cc1 (centres undefined)	i
CCCS(=O)(=O)N1CCc2ccc(NC(=O)c3cc4cccc(OC)c4o3)cc2C1	i
Cc1cc(C(=O)Nc2nc3c(s2)CN(C(=O)/C=C/c2ccc4c(c2)OCO4)CC3)no1	i
Cc1ccc2[nH]c3c(=O)n(CC(=O)NCCCc4ccco4)cnc3c2c1	i
Cc1nc2sc(C(c3ccccc3F)N3CCC(Cc4ccccc4)CC3)c(O)n2n1 (centres undefined)	i
CCc1nc(OCC(=O)Nc2ccccc2C(F)(F)F)c2ccccc2n1	i
CCc1ccc(N2C(=O)C3N=NN(CC(=O)Nc4cc(Cl)ccc4C)C3C2=O)cc1 (centres undefined)	i
COCCCNc1nc2c(c(=O)n(C)c(=O)n2C)n1CC(O)COc1ccccc1 (centres undefined)	i

SMILES	GIRK2 act
CS(=O)(=O)N1CCC(C(=O)Nc2ccc3c(c2)CC(=O)N3)CC1	i
C=CCOCC(O)Cn1c(N2CCCC2)nc2c1c(=O)n(C)c(=O)n2C (centres undefined)	i
O=C(NCc1csc2ncnn12)c1nnn(-c2ccc(OC(F)(F)F)cc2)n1	i
COc1cccc(NC(=O)Cn2nc3c(Oc4cccc(OC)c4)nccn3c2=O)c1	i
C[C@@H]1CC[C@]2(C(=O)OC3OC(CO)C(O)C(O)C3O)CC[C@]3(C)C(=CCC4[C@@]5(C)CC[C@H](O)[C@](C)(C(=O)O)C5CC[C@]43C)C2[C@]1(C)O (some centres undefined)	i
COc1ccc(-c2cn[nH]c2-c2ccc(OCCN3CCCCC3)cc2O)cc1	i
CCCN1CCCc2cc(CCNC(=O)C(=O)Nc3c(C)cccc3C)ccc21	i
Cc1ccc(C)c(OCCCC(C)(C)C(=O)O)c1	i
O=c1oc2cc(S(=O)(=O)N3CCOCC3)ccc2n1Cc1ccc([N+](=O)[O-])cc1	i
CSc1cccc(NC(=O)Cn2nc(SC)c(S(=O)(=O)c3ccc(Cl)cc3)c2N)c1	i

# Next section, overlapping the part above by 6 compounds.
SMILES	GIRK2 act
C[C@@H]1CC[C@]2(C(=O)OC3OC(CO)C(O)C(O)C3O)CC[C@]3(C)C(=CCC4[C@@]5(C)CC[C@H](O)[C@](C)(C(=O)O)C5CC[C@]43C)C2[C@]1(C)O (some centres undefined)	i
COc1ccc(-c2cn[nH]c2-c2ccc(OCCN3CCCCC3)cc2O)cc1	i
CCCN1CCCc2cc(CCNC(=O)C(=O)Nc3c(C)cccc3C)ccc21	i
Cc1ccc(C)c(OCCCC(C)(C)C(=O)O)c1	i
O=c1oc2cc(S(=O)(=O)N3CCOCC3)ccc2n1Cc1ccc([N+](=O)[O-])cc1	i
CSc1cccc(NC(=O)Cn2nc(SC)c(S(=O)(=O)c3ccc(Cl)cc3)c2N)c1	i
COc1ccc(Cl)cc1NC(=O)CSc1nccn1-c1ccc(C(=O)NCc2ccco2)cc1	i
Cc1cccc(-n2nnc(-c3nnc(-c4ccccc4C)o3)c2C)c1	i
COc1ccccc1OCC#CCNC(=O)c1ccc(Cn2ccnc2)cc1	i
COC(=O)CN(C)C(=O)c1cc2n(n1)CCCO2	i
O=C(NCCc1ccc(Cl)cc1)C(=O)Nc1ccc(N2CCCS2(=O)=O)cc1	i
CCOC(=O)N1CCN(C(=O)c2cc(-c3cccs3)[nH]n2)CC1	i
COC(=O)c1ccc(N2C(=O)C3ON(c4ccccc4)C(c4ccc(O)cc4)C3C2=O)cc1 (centres undefined)	i
O=C(NCCCOc1cccc2cccnc12)c1ccc(C(F)(F)F)cc1	i
C=CCn1c(=O)c2ccccc2n(Cc2nc(-c3cc(OC)cc(OC)c3)no2)c1=O	i
CCCCC[C@H](O)/C=C/[C@H]1C=CC(=O)[C@@H]1CCCCCCC(=O)O	i

SMILES	GIRK2 act
Cc1nc(-c2ccc(S(=O)(=O)Nc3cnc(N(C)C)nc3)s2)cs1	i
CCOc1ccc(-c2noc(Cn3ccn4nc(-c5ccccc5C)cc4c3=O)n2)cc1OC	i
Cc1c(C)n2c3c(=O)[nH]c(=O)n(C)c3nc2n1CCN1CCN(c2ccc(F)cc2)CC1	i
Cc1nc(SCc2cccc(Cl)c2)[nH]c(=O)c1CC(N)=O	i
CCC(C(=O)Nc1cc(C)nn1-c1nc(-c2ccc(OC)c(OC)c2)cs1)c1ccccc1 (centres undefined)	i
CCCCN(CC)C(=O)C(=O)c1c[nH]c2ccccc12	i
O=P(O)(O)OC1C(O)C(OP(=O)(O)O)C(O)C(OP(=O)(O)O)C1O (centres undefined)	i
O=C(c1ccc(OC(F)(F)F)cc1)N1CC(c2nc(Cc3ccccc3)no2)C1	i
CNS(=O)(=O)c1cc(N(C)S(=O)(=O)c2ccc(C)cc2)c(C)cc1C	i
O=C(c1cc(-c2ccco2)on1)N1CC(c2nc(-c3ccccc3)no2)C1	i

SMILES	GIRK2 act
COc1cccc(Cn2c(=O)c3sccc3n(Cc3nc(-c4ccccc4Cl)no3)c2=O)c1	i
CC(=O)c1ccc(C(=O)N(Cc2ccncc2)c2nc3c(C)c(C)ccc3s2)cc1	i
CS(=O)(=O)N1CCN(C(=O)c2cnn3c2OCCC3)CC1	i
COc1ccc(S(=O)(=O)NCCc2csc(-c3cccc(F)c3)n2)c(OC)c1	i
CCCN[C@H]1CCc2nc(N)sc2C1	i
O=C(Cc1cccs1)NCCCn1ccnc1-c1ccccc1	i
CCc1ccc(CC(=O)Nc2sc3c(c2-c2nc4ccccc4s2)CCC(C)C3)cc1 (centres undefined)	i
O=S(=O)(Cc1cc(F)ccc1F)NCCc1csc(-c2ccc(F)cc2)n1	i
Cc1cn2c3c(=O)n(C)c(=O)n(C)c3nc2n1Cc1c(Cl)cccc1Cl	i
CN(C(=O)Cn1nc2nc(Nc3ccc(F)cc3)ccn2c1=O)c1ccccc1	i

SMILES	GIRK2 act
CC(=O)Nc1cccc(NC(=O)c2nnn(-c3ccc(C)cc3)n2)c1	i
Cn1c(=O)[nH]c(=O)c2c1nc(NNC=O)n2Cc1ccccc1	i
Cc1ccc2c(c1)C1(OCCCO1)C(=O)N2CC#N	i
Cc1ccccc1-n1cc(C(=O)N2CCC(NC(=O)CC3CCCCC3)CC2)nn1	i
COc1cc(OC)cc(C(=O)NCCS(=O)(=O)N2CCN(c3ccccc3)CC2)c1	i
CCCC(=O)N(CCN1CCOCC1)c1nc2ccc(Br)cc2s1	i
CCc1nc(N)nc(N)c1-c1ccc(Cl)cc1	i
Cc1cn2c3c(=O)[nH]c(=O)n(C)c3nc2n1CCN1CCN(CCCc2ccccc2)CC1	i
COc1cccc2sc(N(C)CC(=O)N3CCc4ccccc43)nc12	i
COc1ccccc1N1CCN(c2nccnc2SCC(=O)Nc2cccc(Cl)c2C)CC1	i

# The last 7 entries of the section before are carried over, then new ones follow:
SMILES	GIRK2 act
Cc1ccccc1-n1cc(C(=O)N2CCC(NC(=O)CC3CCCCC3)CC2)nn1	i
COc1cc(OC)cc(C(=O)NCCS(=O)(=O)N2CCN(c3ccccc3)CC2)c1	i
CCCC(=O)N(CCN1CCOCC1)c1nc2ccc(Br)cc2s1	i
CCc1nc(N)nc(N)c1-c1ccc(Cl)cc1	i
Cc1cn2c3c(=O)[nH]c(=O)n(C)c3nc2n1CCN1CCN(CCCc2ccccc2)CC1	i
COc1cccc2sc(N(C)CC(=O)N3CCc4ccccc43)nc12	i
COc1ccccc1N1CCN(c2nccnc2SCC(=O)Nc2cccc(Cl)c2C)CC1	i
CSc1ccccc1C(=O)NCCN1CCN(C(=O)c2cccs2)CC1	i
COc1ccc(/C=C/C(=O)Nc2c(C)cccc2C(C)C)cc1	i
Cn1nnn(-c2ccc(NS(=O)(=O)c3ccc(F)c(Cl)c3)cc2)c1=O	i
COc1ccc(OCC(=O)Nc2ccc3c(c2)CCCN3S(=O)(=O)c2ccccc2)cc1	i
O=C(NCC1CCN(c2cnccn2)CC1)c1cc(C(F)(F)F)cc(C(F)(F)F)c1	i
CS(=O)(=O)NCC1CCC(C(=O)Nc2cc3ccccc3oc2=O)CC1 (centres undefined)	i
Cc1c(C)n2c3c(=O)n(Cc4ccccc4Cl)c(=O)n(C)c3nc2n1Cc1ccco1	i
COc1ccc(CCNC(=O)c2c3c(nn2C2CCS(=O)(=O)C2)CCC3)cc1OC (centres undefined)	i
CCc1ccc(/C=C/C(=O)Nc2ccc(C)cc2)o1	i
CC1CCc2c(sc3ncnc(SCC(=O)NCc4ccc5c(c4)OCO5)c23)C1 (centres undefined)	i

canonical_smiles | GIRK2 act
COc1cc(-c2nc(Cn3nnc(C(=O)Nc4ccccc4C)c3N)c(C)o2)cc(OC)c1OC | i
Cc1ccc2c(=O)c(C(=O)N3CCC(C)CC3)cn(CC(=O)Nc3ccc(C)c(C)c3)c2n1 | i
Cc1ccc(-c2csc3n[nH]c(=S)n23)cc1 | i
Cc1nc(C)c(C(=O)OC2CN(c3nc4c(C)cccc4s3)C2)s1 | i
O=S(=O)(c1c(F)cccc1F)N1CCC(CSc2ccccn2)CC1 | i
Cc1ccc(OCC(=O)Nc2ccc(S(=O)(=O)N3CCC(C)CC3)cc2)cc1 | i
O=C(NC1CCN(Cc2ccccc2)CC1)c1cc2n(n1)CCCO2 | i
O=S(=O)(Cc1ccc(F)cc1)N1CCC(Oc2ccc(C(F)(F)F)cn2)CC1 | i
COc1cccc2cc(C(=O)NCC3CCC(c4nc5ccccc5n4C)CC3)c(=O)oc12 (centres undefined) | i
CCCCn1cnc2c(-c3ccccc3)cn(CC(=O)Nc3ccc(F)cc3)c2c1=O | i
O=C(Nc1ccc2c(=O)c3ccccc3oc2c1)c1cccs1 | i
O=S(=O)(/C=C/c1ccccc1)N1CCC(Oc2ncccc2Cl)CC1 | i
O=C(Nc1ccc2c(c1)OCO2)Nc1nnc(-c2ccco2)o1 | i
CCc1noc(-c2ccnc(SCC(=O)Nc3ccccc3OC)c2)n1 | i
CCOc1ccc(NC(=O)c2nn(-c3ccc(F)cc3)c(OC)cc2=O)cc1 | i
O=C(CN1CCN(CC(O)c2ccco2)CC1)NC1CCCCC1 (centres undefined) | i
COc1ccccc1NC(=O)CSc1nnc(NC(=O)c2cn(C)nc2OC)s1 | i
Cc1ccc(COc2ccc3c(c2)O/C(=C\c2cccnc2)C3=O)cc1 | i
COc1ccccc1N1CCN(C(=O)Cc2csc(Nc3nc(C)cc(C)n3)n2)CC1 | i
CN1[C@@H]2CCC[C@H]1CC(NC(=O)c1nn(C)c3ccccc13)C2 (some centres undefined) | i
Cc1ccccc1-c1ccc(N2CCC(NC(=O)c3cnccn3)CC2)nn1 | i
CN1CCC(CNC(=O)CCc2ccccc2)CC1 | i
CC(=O)CC1(O)C(=O)N(CCOc2ccc(Cl)cc2)c2ccc(C)cc21 (centres undefined) | i
Cc1ccc(NC(=O)CSc2ncccc2-c2nc(C)no2)c(C)c1 | i
C=CCOCC(O)Cn1c(N(C)Cc2ccccc2)nc2c1c(=O)[nH]c(=O)n2C (centres undefined) | i
Cc1ccc2[nH]c3c(=O)n(CCC(=O)NCc4cccs4)cnc3c2c1 | i
COc1ccc(-c2cc(N3CCC(C(=O)NCc4nc5ccccc5[nH]4)CC3)ncn2)cc1 | i
NC(=O)c1ccccc1OCC#CCNC(=O)C1c2ccccc2Oc2ccccc21 | i
CS(=O)(=O)NCc1ccc(C(=O)c2cccs2)s1 | i
CC(=O)Nc1ccc(Nc2c(C)c(C)nc3c(-c4ccccc4)cnn23)cc1 | i

canonical_smiles | GIRK2 act
Cc1ccc(NC(=O)CSc2nc3c(sc(=S)n3-c3ccc(Cl)cc3)c(=O)[nH]2)cc1C | i
COC(CNc1sc(S(=O)(=O)C2CCCCC2)nc1S(=O)(=O)c1ccc(C)cc1)OC | i
O=C(CSc1cc(-c2ccccc2)ncn1)Nc1nc2ccccc2s1 | i
COc1cc(/C=C2\Oc3cc(OCC#N)cc(C)c3C2=O)cc(OC)c1OC | i
CCC(C)NC(=O)CCn1c(=O)c2ccccc2n2c(SCC(=O)Nc3ccc(F)cc3)nnc12 (centres undefined) | i
O=C(c1ccccc1F)N1CCN(C2=NN=C(c3ccccc3)CS2)CC1 | i
Cc1ccc(NC(=O)N2CCN(c3ccc(-c4ccccc4C)nn3)CC2)cc1C | i
Cc1ccc(NC(=O)Cn2c(=O)nc(-c3ccccc3)c3ccccc32)cc1 | i
Cn1c(=O)[nH]c(=O)c2c1nc1[nH]c(-c3ccccc3)cn12 | i
O=C(NCc1nc(-c2ccccc2)no1)c1coc(NC(=O)C2CC2)n1 | i
CC(C)NC(=O)CCCCn1c(=O)c2ccccc2n(CC(=O)Nc2cccc(Cl)c2)c1=O | i
COc1ccccc1NC(=O)Cn1[nH]c(-c2ccc(F)cc2)cc1=O | i
CC(=O)NCCOc1ccc(NC(=O)c2ccc(-n3nc(C)cc3C)nn2)cc1 | i
CC(=O)c1ccc(S(=O)(=O)NCC(C)(O)c2ccco2)cc1 (centres undefined) | i
COCCCn1c(C(=O)Nc2ccccc2)cc2c(=O)n3cccc(C)c3nc21 | i
Cc1[nH]c(=O)[nH]c(=O)c1CCc1nnc(SCC(=O)NCc2ccco2)o1 | i
Cc1ccccc1NC(=O)N(CCc1cccs1)Cc1ccco1 | i
Cc1cn2c3c(=O)n(CCCN4CCOCC4)c(=O)n(C)c3nc2n1-c1ccc(F)cc1 | i
COc1cc(-c2c(NC(=O)c3cccs3)oc3ccccc3c2=O)cc(OC)c1OC | i
COc1ccc(F)cc1S(=O)(=O)NCCn1nc(C2CC2)n(-c2ccccc2)c1=O | i
CC1CC(C)CN(CC(O)COc2cccc3ccccc23)C1 (centres undefined) | i
CC(C)(C)C(=O)Nc1cccc(N2CCCS2(=O)=O)c1 | i
COc1ccc(Cl)cc1NC(=O)C(=O)NCC1(O)CCOc2ccccc21 (centres undefined) | i
Cc1ccc(S(=O)(=O)NCC(c2ccc3c(c2)OCO3)N2CCN(c3ccccc3F)CC2)cc1 (centres undefined) | i
Cc1[nH]nc(S(=O)(=O)Nc2ccc(Cl)cc2)c1C(=O)NCc1ccc(OC(C)C)cc1 | i
O=C(NC1CC1)c1ccc(OCc2ccc3ccccc3n2)cc1 | i
COc1ccc(-c2nnc(NC(=O)c3cc(OC)c(OC)c(OC)c3)o2)cc1 | i
Cc1ccc(NC(=O)c2c(N)n(/N=C\c3ccco3)c3nc4ccccc4nc23)cc1 | i
